Screens (PubChem BioAssay)
Prx2 Sm inh: inhibitors of Schistosoma mansoni peroxiredoxin 2; actives 0.07% (n = 65,000); S. mansoni Prx2 activity coupled to TGR/GSH (TGR is thioredoxin glutathione reductase), NADPH fluorescence loss, qHTS; some inactives read as strong as hits; Potency, µM; active means full or partial inhibition curve with a strong effect at the top dose; inconclusive means weaker partial or single-point curve; inactive means no accepted curve; further: series up to 57 µM; many of its hits are not listed in these tables
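Enzyme mix: 100 uM NADPH, 25 nM TGR, 700 uM GSH, 50 nM Prx2 in 100 mM phosphate pH 7.4, 10 mM EDTA, 0.01% Tween-20. 15 min RT with compound; NADPH/GSH added, H2O2 starts reaction; NADPH fluorescence read 8 min.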
Anthrax LT inh: anthrax lethal toxin internalization inhibition; Cells, anthrax lethal toxin internalization, FRET ratio (460/530); Potency, µM (highest dose often 40 µM), inactives show at the top dose activity change, negative = inhibition, hits mostly inhibitors; actives 0.67% (n = 70,000); AID 912; active = well fitted falling ratio curve with the 530 nm signal flat; inconclusive = other ratio curves, or a change in one channel alone; inactive = flat curves in the ratio and both channels; the % refers to the ratio; further: on the % scale 0 is the no-effect control and ±100 the full control effect; nearly all actives have a fitted effect of over 50% in size; tested in ME-180 cells; beta-lactamase reporter
* = called active by the depositor; ? = inconclusive; nt = not tested or not shown; [ ] = another dose, or the depositor's remark. Potency means the concentration at half of the fitted maximal effect. Only part of the results is shown. The share of hits here may be higher or lower than overall.

The line under a structure holds: Prx2 Sm inh	Anthrax LT inh
> CN(Cc1cc2ccccc2[nH]c1=O)S(=O)(=O)c1ccccc1
 : >57	?
> O=C(CCN1CCN(CC(=O)Nc2ccccc2Cl)CC1)Nc1ccccc1F
 : >57	-1.7%
> CCC(=O)N1CC(=O)Nc2ccc(Cl)cc2C1c1ccc(F)cc1 (stereo not given)
 : >57	0.0%
> O=C(O)c1ccc(CNc2ccccc2C(=O)O)cc1
 : nt	9.4%
> CN(Cc1nc(-c2ccncc2)no1)S(=O)(=O)c1ccc(Cl)cc1
 : >57	-22.3%
> CN1CCC(O)(c2ccccc2)C(C(=O)c2ccccc2)C1 (stereo not given)
 : nt	-10.8%
> Cc1cc(C)n(C(=O)COc2c(C)cccc2C)n1
 : >57	6.7%
> N=C(N)SCc1nc(-c2ccc(Cl)cc2)no1
 : >57	-4.2%[8 µM]
> O=C(NCc1nc2ccccc2[nH]1)c1ccc(S(=O)(=O)N2CCOCC2)cc1
 : >57	16.0%
> CCOc1cc(S(=O)(=O)NCc2ccc3c(c2)OCO3)c(C)cc1C
 : >57	nt

Retrieved by compound from the list above (two):
The line under a structure holds: Prx2 Sm inh	Anthrax LT inh
> Cc1cc(C)n(C(=O)COc2c(C)cccc2C)n1
 : >57	6.7%
> N=C(N)SCc1nc(-c2ccc(Cl)cc2)no1
 : >57	-4.2%[8 µM]

More entries:
The line under a structure holds: Prx2 Sm inh	Anthrax LT inh
> CCCCN=c1sc(C(=O)OC)cc(=O)n1CCCC
 : >57	?
> N#CCCn1c(=O)c(-c2cccs2)nc2cnc(OCc3ccccc3)nc21
 : >57	?
> Cn1c(CCNC(=O)c2ccc(F)cc2)nc2ccccc21
 : >57	4.1%
> COC(=O)c1ccc(CSc2nnnn2C)o1
 : >57	-2.8%
> Cc1ccc2[nH]c(=O)c3cc(C(=O)NCCN4CCN(C)CC4)sc3c2c1
 : >57	-5.7%
> CCOc1ccc(Cn2nnc(C(=O)NCCc3ccccc3)c2N)cc1
 : >57	-6.9%
> O=C(COC(=O)c1ccc(N2CCCC2=O)cc1)NCc1ccco1
 : >57	-4.8%
> COC(=O)c1ccc(C2c3c(oc4ccccc4c3=O)C(=O)N2CCCN2CCOCC2)cc1 (stereo not given)
 : >57	8.5%
> CCOC(=O)CSc1ncnc2c1cnn2-c1ccc(Cl)cc1
 : >57	-3.8%
> COc1ccc(OCC(=O)Nc2cccc(-c3nc4ccccc4o3)c2)cc1
 : nt	-21.8%
> O=C(NCCO)c1ccc(Cl)cc1
 : >57	-4.5%[8 µM]
> CC(C)(C)n1ncc2c(=O)n(Cc3c(F)cccc3Cl)cnc21
 : >57	-22.8%
> Cc1c(NC(=O)c2cc(=O)[nH]c(=O)[nH]2)c(=O)n(-c2ccccc2)n1C
 : >57	-1.0%
> COCCn1cnc2c(c1=O)c1nc3ccccc3nc1n2/N=C/c1cccc(OC)c1OC
 : >57	-5.6%
> Cc1ccc(N2OC3C(=O)NC(=O)C3C2c2ccco2)cc1 (stereo not given)
 : >57	-3.0%
> O=C(Nc1nnc(N2CCCCCC2)s1)c1cc(-c2ccc(Br)cc2)on1
 : >57	-10.7%
> COc1cccc(NC(=O)c2cccc(OC)c2OC)c1
 : >57	1.3%
> COc1ccc(OC)c(C(=O)C2COC(=O)C2)c1 (stereo not given)
 : >57	16.7%
> COc1ccc(NC(=O)CC2Oc3ccc(C)cc3NC2=O)cc1 (stereo not given)
 : >57	-0.2%
> O=C(Cn1cnc2c(oc3ccccc32)c1=O)NCC1CCCO1 (stereo not given)
 : >57	-7.2%
> Cc1cnc(CNc2ncncc2-c2ccc(N(C)C)cc2)cn1
 : >57	2.4%
> COC(=O)[C@H](C)[C@@H]1C[C@@]1(C)[C@@H](NC(=O)OCc1ccccc1)c1ccccc1
 : >57	?
> Cc1cccc(OCCCCCNCCO)c1
 : nt	-9.0%
> Cc1cccc(C)c1N
 : nt	8.8%
> CCC(O)CNc1nc(SC)nc2sc3c(c12)CCN(C)C3 (stereo not given)
 : >57	-7.2%
> Cc1nnc(SCC(=O)N2CC(=O)Nc3ccccc32)n1-c1ccccc1
 : >57	9.4%
> O=C(COc1ccc(Br)cc1CO)Nc1ccccc1F
 : >57	?
> COc1ccccc1-c1cc(C(=O)N2CCCCC2)no1
 : >57	-7.3%
> COc1ccccc1NC(=O)CSc1nnc(CNC(=O)c2ccco2)o1
 : >57	7.9%
> O=C(CCN1CCOCC1)Nc1cccc(Br)c1
 : >57	-13.3%
> CCOC(=O)c1cc(-c2cccnc2)nn1-c1ccccn1
 : >57	1.7%
> N#CC1=C2SCN(c3ccccc3)CN2C(=O)CC1c1cccs1 (stereo not given)
 : >57	-12.8%
> COC(=O)c1cn(NC(=O)c2cccc(N(C)C)c2)c(=O)c2ccccc12
 : >57	-19.6%
> O=C(NCCCN1CCOCC1)c1cc(-c2ccccc2)on1
 : >57	8.6%
> CN(C)CC(C(=O)c1ccccc1)c1ccccc1 (stereo not given)
 : >57	10µM*
> CCCCn1c(CN2CCOCC2)nc2c1c(=O)n(C)c(=O)n2C
 : >57	4.4%
> Cc1ccc(-c2nnn(CC(=O)N(c3cccc(O)c3)C(C(=O)NC(C)(C)C)c3cccs3)n2)o1 (stereo not given)
 : >57	-4.1%
> O=C(CCC1CCCC1)N1CCN(S(=O)(=O)Cc2ccccc2)CC1
 : >57	13.2%
> CC1(CC(=O)O)C(=O)N=C2C=CC=CN21 (stereo not given)
 : >57	-22.2%
> O=C(c1cc(-c2ccccc2)on1)N1CCCC1
 : >57	-8.1%
> CC1CCN(CC[C@@H]2CCCN2S(=O)(=O)c2cccc(O)c2)CC1
 : >25.6	8.9%
> CCCCS/C(=C(/C#N)C(N)=O)c1cc2c([nH]1)CCCC2
 : >57	6.4%
> Cc1ccc(-n2ncc3c(=O)n(CC(=O)OCc4ccccc4)cnc32)cc1
 : >57	-15.1%
> O=C(Nc1c(C(=O)O)oc2ccc(Br)cc12)c1ccccc1
 : >57	?
> CCOc1ncccc1C(=O)Nc1ccccc1C(=O)NCc1ccc2c(c1)OCO2
 : >57	7.3%
> COC(=O)CSc1nc2sc3c(c2c(=O)n1-c1ccccc1)CCN(C)C3
 : >57	10.4%
> COc1ccc(OC)c(S(=O)(=O)NCc2ccccc2)c1
 : >57	3.3%
> CCSC1(SCC)N=C(N)C2(C#N)C(c3ccccc3)NC3=C(CCC3)C12C#N (stereo not given)
 : >57	?
> CC(C)CCn1c(SCc2ccc(Cl)cc2)nc2c1c(=O)[nH]c(=O)n2C
 : >57	-5.2%
> CCOC(=O)c1sc(NC(=O)C2CC2)cc1C
 : >57	-14.9%

Later entries.
The line under a structure holds: Prx2 Sm inh	Anthrax LT inh
> CCN1CCN(C(CNC(=O)c2ccc3c(c2)OCO3)c2cccnc2)CC1 (stereo not given)
 : >57	16.0%
> COc1ccccc1N1CCN(Cc2ccc(Br)s2)CC1
 : >57	?
> COCCNc1cc(-c2c(C)noc2C)ncn1
 : >57	?
> COC(=O)C1=C(C)NC2=C(C(=O)CC(C)(C)C2)C1c1cccc(C)n1 (stereo not given)
 : >57	28.4%
> CC(C(=O)NCc1cccnc1)N1C(=O)c2ccccc2C1=O (stereo not given)
 : >57	-5.3%
> CCn1cc(CNC(=O)c2cc(Cl)ccc2OC)c(C)n1
 : nt	-3.6%
> O=S(=O)(O)F
 : nt	-28.0%
> CCCc1nc2oc(C(=O)OCC)c(N)c2c2c1COC(C)(C)C2
 : >57	1.6%
> Cc1ccc(S(=O)(=O)N2CCC(C(=O)N3Cc4ccccc4C3)CC2)cc1
 : >57	8.7%
> O=c1c(-c2cccc(Cl)c2)nc2cncnc2n1-c1ccccc1
 : >57	?
> C=CCn1c(SCC(=O)Nc2cccc(C(=O)OC)c2)nnc1C(C)NC(=O)c1cccs1 (stereo not given)
 : >57	9.3%
> CCCCn1nc(C(=O)NC2=NCCS2)c2ccccc2c1=O
 : >57	?
> N#Cc1cn(-c2ccccc2)nc1-c1ccc2c(c1)OCCO2
 : nt	-4.4%
> CC1CCN(C(=O)CN2C(=O)C(C)(C)Oc3ccc(C(=O)NC4CCCC4)cc32)CC1
 : >57	8.9%
> CCCCN1CSC(=S)N(Cc2ccccc2)C1
 : >57	?
> CN1CCN(S(=O)(=O)c2ccc(N(C)CC(=O)Nc3ccc(F)cc3)nc2)CC1
 : >57	-15.1%
> O=C(NCc1ccco1)C(c1ccccc1)N(Cc1cccnc1)C(=O)Cn1nnc2ccccc21 (stereo not given)
 : >57	-12.7%
> COc1cccc(-c2cncnc2NCCN2CCOCC2)c1
 : >57	1.7%
> CC(C)(C)[C@@]1(O)C[C@@H]2OC(=O)C[C@@]23C(=O)O[C@H]2OC(=O)[C@@H](O)[C@]231
 : >57	-22.5%
> O=C(NCCCn1ccnc1)c1cc(S(=O)(=O)N2CCOCC2)c(Cl)cc1Cl
 : >57	-6.6%
> CCC(=O)N1CCc2cc(Br)cc(S(=O)(=O)NCC3CCCN3CC)c21 (stereo not given)
 : >57	9.3%
> CCCCc1nc2ccccc2c(=O)n1NC(=O)c1c(O)c2cccc3c2n(c1=O)CC3
 : >57	-10.4%
> Cc1c(NC(=O)COC(=O)c2cc3c4ccccc4n(C)c3s2)c(=O)n(-c2ccccc2)n1C
 : >57	-4.3%
> Cc1cc(-n2c(C)cc(C(=O)CN3C(=O)NC4(CCCC4)C3=O)c2C)no1
 : >57	7.1%
> COc1ccc(-c2ccc(-c3nnc(-c4cc(OC)ccc4OC)o3)cc2)cc1
 : >57	?
> CC(C)N(C(=O)CSc1nnc(NC(=O)C2CCC2)s1)C(C)C
 : >57	0.3%
> CCOc1ccc(N2CC(C(=O)Nc3ncccc3C)CC2=O)cc1 (stereo not given)
 : nt	-7.3%
> O=C(O)c1cccc(C(=O)Nc2cccc(NC(=O)C3CCCO3)c2)c1 (stereo not given)
 : >57	-6.1%
> COc1ccccc1-c1cncnc1NCCc1cnc[nH]1
 : >57	-16.4%
> CCOC(=O)C1=C(C)NC(C)=C(C(=O)OCC)C1C(=O)OCC(=O)N1CCC(C)CC1
 : >57	14.8%

Full records as entered above.
Entry for `Cc1cc(-n2c(C)cc(C(=O)CN3C(=O)NC4(CCCC4)C3=O)c2C)no1` → Prx2 Sm inh = >57; Anthrax LT inh = 7.1%
Entry for `CCC(=O)N1CCc2cc(Br)cc(S(=O)(=O)NCC3CCCN3CC)c21` (stereo not given) → Prx2 Sm inh = >57; Anthrax LT inh = 9.3%

Other records.
The line under a structure holds: Prx2 Sm inh	Anthrax LT inh
> Nc1nc(SCC(=O)N2CCCc3ccccc32)n(-c2ccccc2)n1
 : >57	-8.4%
> COc1cccc(-n2c(COc3ccc(C)cc3)nnc2SCC(=O)O)c1
 : >57	2.8%
> O=S(=O)(c1cccc(-c2nnc(SCc3nc4ccccc4s3)o2)c1)N1CCOCC1
 : >57	?
> O=C(CN(CC1CCCO1)C(=O)CNS(=O)(=O)c1ccccc1)NCc1ccccc1 (stereo not given)
 : >57	-9.9%
> COc1ccc(C)cc1S(=O)(=O)Nc1ccc(F)c(Cl)c1
 : >57	19.4%
> Cn1c(=O)[nH]c(=O)c2c1nc(N1CCN(Cc3ccccc3)CC1)n2CCCc1ccccc1
 : >57	9.4%
> COc1ccc(-c2nc3cnc(Nc4cccc(OC)c4)nc3n(Cc3cccs3)c2=O)cc1
 : >57	?
> O=C(O)C[C@H]1OCC=C2CN3CC[C@@]45C6=CC(=O)C(=O)C([N+](=O)[O-])=C6N[C@H]4[C@H]1[C@H]2C[C@@H]35
 : >57	-0.2%[8 µM]
> CC12C=CC3(O1)C(C(=O)N(c1cccnc1)C3C(=O)NC1CCCCC1)C2C(=O)Nc1ccccc1 (stereo not given)
 : >57	3.6%
> O=C(CC1(O)C(=O)Nc2cc(Cl)cc(Cl)c21)c1ccncc1 (stereo not given)
 : >57	12.2%
> COc1ccc(Oc2ncc3nc(-c4cccs4)c(=O)n(-c4ccccc4)c3n2)cc1
 : >57	?
> Cc1ccc(C(=O)Nc2nc3ccccc3n2CCN2CCCC2)cc1
 : >57	-8.8%
> COC(=O)c1[nH]c2cccc(OC)c2c1NC(=O)CCN1CCC(C)CC1
 : >57	9.2%
> COc1ccccc1CNc1ncnc2ccc(-c3ccoc3)cc12
 : >57	-22.4%
> CN(CC(=O)N1CCc2ccccc21)S(=O)(=O)c1ccc(Br)s1
 : >57	-14.6%
> O=c1[nH]c2ccsc2c(=O)n1-c1ccc(F)c(Cl)c1
 : >57	-9.3%
> CCCn1nnnc1SCC(=O)NCc1ccc(OC)cc1
 : >57	11.1%
> CCc1ccc(NC(=O)N(C2CCC(C)CC2)C2CCN(C(C)=O)CC2)cc1 (stereo not given)
 : >57	-3.3%
> Cn1c(=O)c2c(nc(N3CCCCC3)n2CCSc2nc3ccccc3o2)n(C)c1=O
 : >57	-3.3%
> CCc1ncc(C(=O)c2ccc(OC)cc2)n1C
 : nt	2.7%
> CCNC(=O)[C@@H]1O[C@@H](n2cnc3c(N)nc(NCCc4ccc(CCC(=O)O)cc4)nc32)[C@H](O)[C@@H]1O
 : >57	?
